WNV NS2B-NS3 inh – inhibitors of WNV NS2B-NS3 protease, primary screen, biochemical, fluorogenic substrate; Genome polyprotein (West Nile virus), P06935; fluorogenic substrate Ex360/Em465; stronger effect = lower value; z-score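 (tested at a level between 10 and 100 µM)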; 65,000 tested, 0.18% active; AID 577, 2007;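 active = z-score at -3 or under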;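 also: score is relative to mean and spread of the compound wells of a plate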
Target sequence (P06935 1371-1501 limits assumed): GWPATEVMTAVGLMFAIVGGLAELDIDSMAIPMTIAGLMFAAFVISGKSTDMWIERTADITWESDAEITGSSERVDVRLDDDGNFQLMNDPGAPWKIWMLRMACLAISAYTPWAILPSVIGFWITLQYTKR
Target sequence (P06935 1502-1679 limits assumed): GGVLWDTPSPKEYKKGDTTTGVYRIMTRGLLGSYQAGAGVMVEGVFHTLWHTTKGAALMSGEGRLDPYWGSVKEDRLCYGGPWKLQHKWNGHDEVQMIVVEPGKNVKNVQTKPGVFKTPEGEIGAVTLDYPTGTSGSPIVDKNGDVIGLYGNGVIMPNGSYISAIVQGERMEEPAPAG
Hsc70 ATP site – Hsc70 inhibitors, probe displacement, primary screen, biochemical, fluorescence polarization (AID 568); Heat shock cognate 71 kDa protein (Homo sapiens); Hsc70 fluorescence polarization, probe displacement; higher % means a stronger effect; strong numbers were not always called active; displacement, % at 20 µM; hits with a dose series show IC50 in µM; 83,000 tested, under 10 active;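 active = displacement above 50% without optical interference and an IC50 on retest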;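 also: ATPase domain with a fluorescein-tagged ATP probe; 0% = vehicle and 100% = excess ADP; read after one hour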
MT1-MMP reporter – inhibitors of MT1-MMP promoter transcription, cell-based, luciferase reporter, luminescence (AID 618); 87,000 tested, 0.62% active; calls from a first round at 10 µM; hits with a dose series show EC50 in µM; MT1-MMP promoter luciferase reporter cells, luminescence;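 active = over half of the reporter light lost at 10 µM or EC50 under 50 µM; inactive = the rest and hits that failed the dose series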;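 also: actives suppress MT1-MMP promoter-driven transcription so potencies describe inhibitors; HT1080 fibrosarcoma cells; overnight exposure; toxic or luciferase-blocking compounds were not removed from the actives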
The depositor's hits bear a star; i = inactive; nt = no result given. This is a subset; the hit share may differ from the screen's.

SMILES	WNV NS2B-NS3 inh	Hsc70 ATP site	MT1-MMP reporter
COc1ccc(N2CCN(C(=O)c3cc4c(-c5cccc(OC)c5)nn(C)c4s3)CC2)cc1	0.78	-3.2%	i
O=C(CSc1nnc(-c2ccccc2)o1)N1CCc2ccccc2C1	0.14	-0.1%	i
CCOC(=O)c1c(NC(=O)CSc2nnnn2C)sc(C)c1-c1ccc(C)cc1	-0.87	-1.7%	i
COc1cccc(NCc2cc3c(C(C)(C)C)nn(-c4ccccc4)c3[nH]c2=O)c1	nt	-6.7%	i
COc1ccc(NC(=O)c2ccc(N(C)S(C)(=O)=O)cc2)cc1OC	0.48	6.6%	i
O=C(Nc1nccs1)c1ccc(Cl)s1	-1.2	2.8%	i
O=C(Nc1ccccc1Cl)c1ccccc1Cl	nt	-0.3%	i
COC(=O)c1cc(Cl)c(N)cc1OC	2	0.2%	i
CCOC(=O)c1ccc2c(c1)N(CC(=O)N1CCCC1)C(=O)C(C)(C)O2	-0.61	0.0%	i
Cc1[nH]nc2c1C(c1ccc(Cl)cc1)C(C#N)=C(N)O2 (stereo not given)	0.16	3.6%	i
COCCNS(=O)(=O)c1ccc(-c2ccc(S(=O)(=O)NCCOC)cc2)cc1	2.5	-5.1%	i
O=S1(=O)CCN2C(c3ccc4c(c3)CCCC4)=CSC2=N1	-0.51	-0.4%	i
COCCSc1nc2c(c(=O)[nH]c(=O)n2C)n1Cc1cccc(C)c1	0.42	6.0%	i
O=C(NC1CCCCC1)c1ccc(CN2CCOCC2)cc1	nt	5.4%	i
CCCc1nnc(SCC(=O)N2CCOCC2)n1Cc1ccco1	-0.02	2.9%	i
C=CCn1c(SCC(=O)Nc2ccc3c(c2)OCO3)nnc1-c1ccccc1OC	1.7	-3.1%	i
CCOC(=O)NC(CC(=O)O)c1ccc(OC)cc1 (stereo not given)	-1.2	2.9%	i
Cc1ccccc1N1C(=O)C(Cl)=C(N2CCCCCC2)C1=O	-0.59	-0.9%	i
O=C(CN1C(=O)CC(c2ccco2)Sc2ccccc21)NCC1CCCO1 (stereo not given)	-0.62	-2.6%	i
CCN(C(=O)c1c(C)cc(=O)oc1C)c1ccc2c(c1)OCO2	nt	5.6%	i
c1ccc2c(CNn3cnnc3)cccc2c1	-0.54	3.5%	i
Cc1[nH]nc2ncc(C(=O)c3ccccc3O)cc12	1.3	-4.1%	i
O=C(COc1ccc(Cl)cc1)NCCCn1ccnc1	0.58	5.1%	i
O=C(Nc1ccccc1)N1CCN(c2cccc(C(F)(F)F)c2)CC1	nt	4.2%	i
O=C(NCc1ccc(F)cc1)C1C2C=CC3(CN(Cc4cccnc4)C(=O)C13)O2 (stereo not given)	0.53	1.6%	i

The final two records of the part before are carried over, then new ones follow:
SMILES	WNV NS2B-NS3 inh	Hsc70 ATP site	MT1-MMP reporter
O=C(Nc1ccccc1)N1CCN(c2cccc(C(F)(F)F)c2)CC1	nt	4.2%	i
O=C(NCc1ccc(F)cc1)C1C2C=CC3(CN(Cc4cccnc4)C(=O)C13)O2 (stereo not given)	0.53	1.6%	i
CCOc1cc(-c2nc(-c3ccc(C)nc3OCC)no2)cc(OCC)c1OCC	0.45	-12%	i
Cc1ccc(NC(=S)NNC(=S)NCc2ccccc2)cc1	nt	0.7%	i
Cc1csc(N(C(=O)c2ccc(S(=O)(=O)N(C)C)cc2)c2ccccc2)n1	nt	0.5%	i
O=C1c2ccccc2C(=O)N1c1ccc(-c2nc3ccccc3o2)cc1	1.1	0.1%	i
O=c1[nH]c2ccc(S(=O)(=O)NCc3ccccn3)cc2s1	-0.42	-4.8%	i
Cc1cc(Nc2cccc(F)c2)nc(-c2ccccc2O)n1	0.46	2.9%	i
CCCCCOc1ccc(C(=O)NC(CCC)C(=O)O)cc1 (stereo not given)	-0.45	-2.5%	i
CCC(=O)Nc1ccc(NC(=O)Cc2ccccc2)cn1	-0.29	-3.2%	i
O=C(O)CCCN=C1CCCc2ccccc2N1	nt	3.5%	i
N#CC(C(N)=O)=C1CCC2(CC1)OCCCCO2	-0.94	-5.2%	i
COc1cccc(/C=N/n2c(=S)n(C)c3cc(C)c(C)cc32)c1OC	nt	-6.3%	i
CCc1ccc(CCC(=O)Nc2nnc(C)s2)o1	-0.19	0.8%	i
O=c1c2cccnc2[nH]c(=S)n1CCCN1CCN(c2ccccc2F)CC1	-1.2	1.9%	i
Cc1cc(Cl)ccc1NC(=O)Nc1c(C)n(-c2ccccc2)c(=O)n1C	nt	-0.7%	i
CC1(C)CNC(=O)c2sc(N3CCCCC3)nc2C1	0.84	0.2%	i
CCCc1cc(C(=O)Nc2cccnc2)no1	-0.79	8.2%	i
COc1ccc(S(=O)(=O)N2CCSC2c2ccc(OC)c(OC)c2)cc1 (stereo not given)	-1.2	-2.5%	i
CC(=O)NCCc1ccc(S(=O)(=O)N2CCOCC2)cc1	0.01	4.9%	i
CCCCOCCCNC(=O)Cc1cccs1	-0.98	-2.2%	i
COc1ccc(OC)c(C2/C(=C(\O)c3ccc(OC)c(Cl)c3)C(=O)C(=O)N2CCN(C)C)c1 (stereo not given)	-0.27	-12%	i
O=C(COc1ccc(-c2nnco2)cc1)N1CCN(S(=O)(=O)c2ccccc2)CC1	0.39	-1.1%	i
Cn1c(=O)c2cc(S(=O)(=O)N3CCOCC3)ccc2n(C)c1=O	1	-4.1%	i
CC(C)c1nc2n[nH]c(N)c2c2c1CCCC2	0.04	-3.1%	i
N#CCOc1nc(N2CCOCC2)nc(N2CCOCC2)n1	-1.2	-2.1%	i
Oc1ccc(-c2[nH]ncc2-c2ccc(Cl)cc2)c(O)c1	-0.15	-0.1%	i
Next part:
SMILES	WNV NS2B-NS3 inh	Hsc70 ATP site	MT1-MMP reporter
CCOc1ccccc1C1C(C#N)=C(SCC(=O)OC)NC(=O)C1C(=O)OC (stereo not given)	-1.2	-5.9%	i
COc1ccccc1NC(=O)C1=C(C)Nc2nc(CCCO)nn2C1c1ccc2c(c1)OCO2 (stereo not given)	-1.7	12%	i
COC(=O)NC1CCS(=O)(=O)C1 (stereo not given)	0.08	0.2%	i
CC(=O)Nc1nnc(C)s1	1.3	1.4%	i
CC1(C)CC(=O)c2cnc(N)nc2C1	nt	1.7%	i
COc1ccc(C(=O)NCCn2cc(SCC(=O)N3CCOCC3)c3ccccc32)cc1	1.7	-0.9%	i
CC(=O)Nc1ccc(NC(=O)CSc2nnc(-c3ccccc3)n2Cc2ccc3c(c2)OCO3)cc1	nt	-0.5%	i
O=C(ONc1ccc(N=NC(=O)c2ccccc2O)cc1)c1ccccc1	nt	9.8%	i
Cc1cccc(OCCCC(=O)Nc2ccc(S(=O)(=O)N3CCCC3)cc2)c1	nt	1.3%	i
CC(=O)c1cc(Cl)ccc1OC(=O)c1ccco1	-0.65	0.6%	i
FC(F)(F)c1cccc(N2CCN(Cc3cccnc3)CC2)c1	0.0073	0.4%	i
COc1ccc(C(CC(=O)O)NC(=O)C2CCCCC2)cc1 (stereo not given)	1.5	-3.3%	i
CC(C)(C)C(=O)Nc1ccc(C(=O)OC2CCCCC2)cc1	nt	0.4%	i
CC(=O)C1=C(C)NC(=O)NC1c1cc(Br)ccc1OCC#N (stereo not given)	nt	0.1%	i
Cc1cc(NC(=O)c2cccc(S(=O)(=O)N3CCCC3)c2)no1	-1.8	-0.6%	i
CCOCCN(C(=O)COC)c1cccc(OC)c1	0.82	-6.9%	i
OC(CNCc1ccco1)COc1ccccc1 (stereo not given)	-0.86	1.6%	i
CCCc1cc(=O)oc2cc(C)c3c(C)coc3c12	1.8	-0.3%	i
CCN(CC)S(=O)(=O)c1cccc(-c2nnc(SCCOc3ccccc3C)o2)c1	-0.02	2.4%	i
COc1cc(O)c(C(C)=O)cc1OC	nt	-1.3%	i
CCOc1ccc(NC(=O)CSc2nnc(COc3c(C)cccc3C)o2)cc1	-0.68	-3.5%	i
COC(=O)c1c(-n2cnnn2)sc(C)c1C	-1.1	1.7%	i
O=C(CC1(O)C(=O)N(CCc2ccccc2)c2ccccc21)c1ccco1 (stereo not given)	2.1	-1.6%	i
Cc1cccc2cc(CN(CC3CCCO3)C(=O)c3cnccn3)c(=O)[nH]c12 (stereo not given)	-0.27	6.4%	i
CCSc1nsc(SCC)c1C(N)=O	-1.2	0.9%	i
Other records follow:
SMILES	WNV NS2B-NS3 inh	Hsc70 ATP site	MT1-MMP reporter
O=C(CCCNS(=O)(=O)c1cccs1)N1CCc2ccccc2C1	0.85	3.9%	i
Nc1nc(C(=O)N2CCOCC2)nn1S(=O)(=O)c1ccc(Cl)cc1	-0.78	-0.3%	i
CC(C)C(=O)Nc1ncc2c(n1)CC(c1cccs1)CC2=O (stereo not given)	nt	4.2%	i
COc1ccc(C2(CNC(=O)c3ccc(Br)o3)CCOCC2)cc1	1.2	-4.2%	i
Cc1cccc2nc(Cn3c(=O)n(CCC(=O)NCc4ccco4)c(=O)c4ccccc43)cc(=O)n12	0.22	-5.0%	i
CCSc1nnc(-c2cccs2)o1	0.26	3.6%	i
CN(C)c1ccc(C2CC(=O)NC3=C2C(=O)CC(C)(C)C3)cc1 (stereo not given)	0.38	-2.7%	i
COc1cccc(C(c2sc3ncnn3c2O)N2CCc3ccccc3C2)c1 (stereo not given)	-0.08	1.1%	i
COc1cccc(CNC(=O)C2CCCN(S(C)(=O)=O)C2)c1 (stereo not given)	0.89	-6.0%	i
COc1ccc(C(=N/O)/C(=N/O)c2ccc(OC)cc2)cc1	0.21	1.8%	i
Cc1nc2ccc(S(=O)(=O)NCC(=O)N3CCC(C)CC3)cc2s1	-0.61	1.2%	i
O=C(Nc1nc2c(s1)CCc1ccccc1-2)c1ccco1	0.35	0.7%	i
O=C(N/N=C1\CCCc2ccccc21)c1ccc([N+](=O)[O-])cc1Cl	nt	-0.2%	i
Cc1cccc(CN2CCN(CC(=O)O)C2=O)c1	0.7	0.1%	i
CCC(C(=O)OCCN(CC)CC)c1ccccc1 (stereo not given)	0.6	3.0%	i
CS(=O)(=O)N(CC(=O)NCc1ccc2c(c1)OCO2)c1ccccc1	0.41	-0.1%	i
COc1ccc(S(=O)(=O)N2CCCC(C(=O)NCc3ccccn3)C2)cc1Cl (stereo not given)	-0.87	-4.8%	i
COC(=O)c1ccccc1NC(=O)CSc1nnc(-c2cccc(NC(C)=O)c2)n1C	-1.5	0.9%	i
c1ccc(-c2nnc(SCc3nc4ccccc4[nH]3)o2)cc1	0.7	1.6%	i
CCOC(=O)c1cnc(C(C)(C)C)[nH]c1=O	-0.41	0.8%	i
CC1(C)CC(=O)C=C(N2CCNCC2)C1	1.5	-2.2%	i
CCOc1cc(C#N)c(NC(=O)c2ccnn2C)cc1OCC	-0.38	-3.7%	i
Cn1nnnc1SCC(=O)Nc1ccccc1-c1ccccc1	0.58	-12%	i
O=C(O)c1ccc2nc(C(F)(F)F)[nH]c2c1	1.2	-1.6%	i
N#Cc1c2n(c3c(=O)[nH]cnc13)CCCC2	-0.33	3.9%	i

An excerpt of these results, comma-delimited.
canonical_smiles,WNV NS2B-NS3 inh,Hsc70 ATP site,MT1-MMP reporter
Oc1ccc(-c2[nH]ncc2-c2ccc(Cl)cc2)c(O)c1,-0.15,-0.1%,i
COc1ccc(C(=O)NCCn2cc(SCC(=O)N3CCOCC3)c3ccccc32)cc1,1.7,-0.9%,i
CCSc1nnc(-c2cccs2)o1,0.26,3.6%,i
CCCCOCCCNC(=O)Cc1cccs1,-0.98,-2.2%,i
Cn1c(=O)c2cc(S(=O)(=O)N3CCOCC3)ccc2n(C)c1=O,1,-4.1%,i
COc1ccc(S(=O)(=O)N2CCSC2c2ccc(OC)c(OC)c2)cc1 (stereo not given),-1.2,-2.5%,i
O=C(CSc1nnc(-c2ccccc2)o1)N1CCc2ccccc2C1,0.14,-0.1%,i

Next structures:
SMILES	WNV NS2B-NS3 inh	Hsc70 ATP site	MT1-MMP reporter
CCOC(=O)C1CCCN(C(=O)c2cnn3c(C(F)F)cc(-c4ccc(C)cc4)nc23)C1 (stereo not given)	1.6	7.0%	i
CC1=C(C(=O)Nc2ccccn2)C(c2ccc(Br)cc2)n2ncnc2N1 (stereo not given)	0.84	1.5%	i
CCOC(=O)C(CC)Sc1nc2c(c(=O)[nH]c(=O)n2C)n1CCc1ccccc1 (stereo not given)	1.8	-7.6%	i
CCCn1c(SCC(=O)c2ccc3c(c2)OCCO3)nnc1C(C)C	1.2	1.2%	i
CC(=O)N1CCc2cc(S(=O)(=O)CCC(=O)Nc3cccc(F)c3)ccc21	0.24	-1.2%	i
CCOC(=O)CC(NC(=O)c1ccco1)c1ccccc1Cl (stereo not given)	1.4	-4.7%	i
Cc1ccc(C2CC2C(=O)NNC(=S)Nc2ccc(Cl)cc2)cc1 (stereo not given)	nt	4.4%	i
O=C(CC1Oc2ccccc2NC1=O)NCCCN1CCN(C2CCCCC2)CC1 (stereo not given)	-0.73	5.4%	i
O=C(O)COc1ccc(NC(=O)c2cccs2)cc1	nt	3.1%	i
O=C(CCSc1nnnn1-c1ccccc1)N1CCOCC1	-0.11	-4.8%	i
O=[n+]1cc(-c2cc3ccccc3o2)n([O-])c2c1CCCC2	-0.26	-2.1%	i
COc1ccccc1NC(=O)CCCC(=O)OCC(F)(F)C(F)F	nt	2.6%	i

Limited to Hsc70 ATP site (2 entries from above):
mol	Hsc70 ATP site
CCOC(=O)C(CC)Sc1nc2c(c(=O)[nH]c(=O)n2C)n1CCc1ccccc1 (stereo not given)	-7.6%
CCCn1c(SCC(=O)c2ccc3c(c2)OCCO3)nnc1C(C)C	1.2%
